Source: PubChem BioAssay
TRPML1 inh – blocks the human TRPML1 channel; TRPML1-inducible cells, Ca2+ dye fluorescence, FDSS; stronger effect = lower value; inhibition of EC80 agonist-evoked calcium signal; Q9GZU1; AID 624415; actives 0.02% (n = 390,000); activity change, negative = inhibition, % (concentration not given with the values); in the data active means activity change below about -50%; inconclusive means about -30% to -50%; inactive means above about -30%;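 further: stimulus is agonist 54-4 at its EC80 concentration; on the % scale 0 is the no-effect control and ±100 the full control effect; compound concentration not given in the record; the text of the record puts the active cut at -80%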
Target sequence (Q9GZU1 whole entry, looked up): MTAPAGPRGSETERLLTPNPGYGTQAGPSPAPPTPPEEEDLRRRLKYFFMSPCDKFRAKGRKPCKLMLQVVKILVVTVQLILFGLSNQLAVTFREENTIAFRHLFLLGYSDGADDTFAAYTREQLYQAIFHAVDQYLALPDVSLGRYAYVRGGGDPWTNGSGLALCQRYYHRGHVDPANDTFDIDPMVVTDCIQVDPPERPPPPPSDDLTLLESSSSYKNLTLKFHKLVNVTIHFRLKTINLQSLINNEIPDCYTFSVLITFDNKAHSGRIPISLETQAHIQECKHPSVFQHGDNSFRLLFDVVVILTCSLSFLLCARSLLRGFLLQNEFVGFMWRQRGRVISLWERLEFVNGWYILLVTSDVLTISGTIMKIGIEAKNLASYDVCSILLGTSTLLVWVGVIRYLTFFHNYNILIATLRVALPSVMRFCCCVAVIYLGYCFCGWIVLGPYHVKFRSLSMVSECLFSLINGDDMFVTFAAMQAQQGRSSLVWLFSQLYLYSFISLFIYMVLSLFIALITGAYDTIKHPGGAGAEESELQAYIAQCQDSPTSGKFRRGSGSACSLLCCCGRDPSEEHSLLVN
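Calcium fluorescence in TRPML1-DL cells induced overnight with Tet: a 110 s read after compound pin addition, then a 110 s antagonist read after challenge with 54-4 at 4 uM final (EC80).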
ClpP mod – qHTS Assay for Activators of ClpP; ATP-dependent Clp protease proteolytic subunit (Bacillus subtilis (strain 168)), P80244; purified B. subtilis ClpP, FRET peptide cleavage, 20 min; Potency, µM (doses to about 57.5 µM), inactives show top-dose activity change, negative = active; actives 1.9% (n = 340,000); AID 651965, 2013; active = well fitted falling curve with a large enough effect; inconclusive = small, poorly fitted or top-dose-only effect; inactive = no such curve, though single readings can be large or run the other way; further: potency means the concentration at half of the fitted maximal effect; the source files actives as falling curves though it sought activators and does not explain the sign; nearly all actives have a fitted effect of over 65% in size; many hits overshoot -100%
Target sequence (P80244 whole entry, looked up): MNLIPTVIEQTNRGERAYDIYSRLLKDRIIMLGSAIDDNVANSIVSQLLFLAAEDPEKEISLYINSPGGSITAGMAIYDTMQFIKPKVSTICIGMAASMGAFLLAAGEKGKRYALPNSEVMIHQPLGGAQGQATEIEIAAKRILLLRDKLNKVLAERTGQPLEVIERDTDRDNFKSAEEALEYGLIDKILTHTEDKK
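Purified B. subtilis ClpP, 10 microg/mL final in Tris/HCl pH8 with KCl, BSA, glycerol and Tween-20, cleaved an Abz/nitrotyrosine-quenched decapeptide. Fluorescence (ex 320, em 430) was read at 0 and 20 min at room temperature. Delta was normalized to 5.8 microM ADEP and DMSO/no-enzyme controls.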
Active calls of the source: *; ? = inconclusive. This is a subset; count on the stated rates, not on these rows.

SMILES	TRPML1 inh	ClpP mod
Cc1cc(C)c(Cn2c(=O)n(CCC(=O)NCCc3ccccc3)c(=O)c3ccccc32)c(C)c1	-2	-5.9%
CCOC(=O)C1CCCN(C(=O)c2cc3c(=O)n(C)c4ccccc4c3s2)C1 (stereo not drawn)	1	4.5%
COc1ccccc1NC(=O)CSc1oc(-c2cccs2)nc1S(=O)(=O)c1ccccc1	20	-10%
Cc1ccc2c(CC(=O)N3CCN(c4cccc(Cl)c4)CC3)coc2c1C	7	-1.8%
COc1ccc2c(c1)c1c(c(=O)n(CCc3ccccc3)c(=O)n1Cc1ccccc1)n2C	5	4.2%
COc1ccc(Cc2nc3ccc(C(=O)NCc4ccccc4Cl)cc3o2)cc1	-13	-5.7%
CCOC(=O)c1noc2ncn(CC(=O)Nc3ccc(F)cc3Cl)c(=O)c12	-10	0.4%
CC(C)c1nn2c(=O)cc(COC(=O)c3cccc(NC(=O)COc4ccc(F)cc4)c3)nc2s1	2	?
COCCNC(=O)c1c(C)oc2nc(C)nc(N3CCOCC3)c12	-1	0.2%
COc1ccc(CCNC(=O)c2cnn(-c3cccc(C)c3)c2C2CCN(C(=O)OC(C)(C)C)CC2)cc1OC	-24	-3.0%
O=C(c1cccn1-c1nnc(N2CCCC2)s1)N1CCN(c2ccc(Cl)cc2)CC1	0	-0.3%
CC(=O)N1CCC(N(Cc2ccc(C)o2)C(=O)Nc2ccc(C)cc2)CC1	7	-2.5%
Cc1ccc(CN2C(=O)N(c3ccc(F)cc3)C(=O)C2CC(=O)Nc2ccc(Cl)cc2)cc1 (stereo not drawn)	20	0.4%
Cc1c(C(=O)N(Cc2ccco2)Cc2ccccc2Cl)oc2ccc(F)cc12	19	-19%
CC1(C)CC(=O)c2c(oc3c(Cl)cc(NS(=O)(=O)c4ccc(Cl)cc4)cc23)C1	8	-4.5%
CC(=NOC(=O)c1ccc(Cl)cc1)c1nccs1	5	-22%
CC(=O)c1cccc(NC(=O)CSc2nnc3ccc(-c4ccc(Cl)cc4)nn23)c1	2	-4.2%
O=C(c1ccco1)N(Cc1cccnc1)C(c1ccccc1)c1nc2ccccc2[nH]1 (stereo not drawn)	-17	-2.8%
Cc1cccc2sc(N(Cc3cccnc3)C(=O)C3COc4ccccc4O3)nc12 (stereo not drawn)	-13	-4.3%
Cc1ccc(-n2ncc(C(=O)NCCc3ccccc3)c2C2CCN(C(=O)OC(C)(C)C)CC2)c(C)c1	-8	2.0%
Cc1ccc(C(=O)Nc2nc3n(n2)C(c2ccc(F)cc2)C=C(c2ccccc2)N3)cc1 (stereo not drawn)	-3	?
COc1cccc(-c2nnc3n(Cc4ccc(F)cc4)c(=O)c4ccccc4n23)c1	11	3.7%
CCc1ccccc1NC(=O)CC(C)n1nc(C)cc1C (stereo not drawn)	16	-2.6%
CC(=O)Nc1ccc(S(=O)(=O)N2CCC(n3c(C(F)(F)F)nc4cccnc43)CC2)cc1	3	-0.4%
CCOC(=O)c1c(C)oc2ccc(N(C(=O)c3ccncc3)S(=O)(=O)c3ccc(F)cc3C)cc12	47	-4.9%
CCCNC(=O)c1cc(C2CCCN(S(=O)(=O)c3ccccc3)C2)on1 (stereo not drawn)	20	-2.5%
CC1=C(C(=O)Nc2ccc(C)cc2C)C(c2ccc[nH]2)n2ncnc2N1 (stereo not drawn)	-7	-0.5%
Cc1ccc(C(=O)NCC(c2ccco2)S(=O)(=O)c2ccccc2)cc1C (stereo not drawn)	13	-0.7%
O=C(Nc1c2c(nn1-c1ccc(Cl)cc1)CS(=O)(=O)C2)c1cccc(F)c1	7	-1.9%
Cc1cc(C)c(NC(=O)CSc2nccn2Cc2ccco2)c(C)c1	-6	0.7%

Whole records as entered above. Values in the order: TRPML1 inh, ClpP mod
CC(=NOC(=O)c1ccc(Cl)cc1)c1nccs1 across the screens: 5, -22%
Cc1ccc(C(=O)NCC(c2ccco2)S(=O)(=O)c2ccccc2)cc1C (stereo not drawn) across the screens: 13, -0.7%

Continued:
SMILES	TRPML1 inh	ClpP mod
CCOC(=O)Cn1c(=O)oc2cc(S(=O)(=O)NCc3ccc(F)cc3)ccc21	5	-2.8%
COc1ccc(CC(=O)N2CCc3cc(OC)c(OC)cc3C2COc2ccc(F)cc2)cc1 (stereo not drawn)	49	-3.0%
Cc1ccccc1Cn1c(C)c(CNCc2ccccc2)c(C(=O)O)c1C	2	-1.0%
CCc1ccc(NC(=O)CC2C(=O)N(c3cccc(OC)c3)C(=O)N2C2CCCC2)cc1 (stereo not drawn)	-5	-0.9%
O=C(NCc1ccccc1)C(=O)Nc1c2c(nn1-c1ccccc1)CSC2	-8	-8.1%
Cc1ccc(S(=O)(=O)c2nnn3c2nc(NCc2ccc(F)cc2)c2sccc23)cc1C	-8	28µM*
Cc1nc(-c2ccccc2)sc1CCNC(=O)C(=O)Nc1ccc2c(c1)OCCO2	-6	8.9%
O=C(c1ccccc1Br)N(Cc1ccco1)Cc1ccco1	15	-3.4%
COc1ccc(-c2c(C#N)c(SCC(=O)Nc3ccc(C)c(C)c3)nc(C)c2C(=O)Nc2ccccc2)cc1OC	-15	4.1%
Cc1cc2n(n1)CCCN2C(=O)Nc1cccc(C)c1C	19	0.3%
COc1ccc(OC(C)C(=O)NCc2nc(-c3ccc(Cl)cc3)no2)cc1 (stereo not drawn)	7	-11%
CCOc1ccc(CCNC(=O)CSc2nc3ccccc3nc2Cc2ccc(C)cc2)cc1OCC	12	-6.5%
CCOC(=O)c1cc(-c2ccccc2)n(-c2cccc(C(=O)Nc3cccc(F)c3)c2)c1C	-2	-28%
COc1ccccc1NC(=O)c1oc2ccccc2c1NC(=O)C1CCCCC1	24	57%
O=c1cc(CN2CCCC2)c2c(ccc3ccccc32)o1	3	4.6%
CCC(C)NC(=O)c1sc2nc3n(c(=O)c2c1C)CCC3 (stereo not drawn)	4	-9.0%
COc1ccc(NC(=O)c2ccco2)cc1NC(=O)COc1cc(C)ccc1C(C)C	-8	49%
COC(=O)c1cnc(N2CCN(c3ccc(F)cc3)CC2)c2ccccc12	17	?
CC(C)C[C@@H](CN1CCC[C@@H]1CN1C(=S)NC[C@@H]1Cc1ccc(O)cc1)N1C[C@H](Cc2ccccc2)N(CCc2ccccc2)C1=S	-22	-2.9%
COc1ccc(N2CCN(CCCNC(=O)Cn3c(-c4cccs4)cc4ccccc43)CC2)cc1	12	4.2%
O=C(CC(NCc1cccnc1)C(=O)O)Nc1ccc(O)cc1 (stereo not drawn)	-9	-2.2%
Cc1cccc2sc(N(Cc3cccnc3)C(=O)CCc3ccccc3)nc12	80	-3.9%
O=C(Nc1sc2c(c1C(=O)NCc1cccnc1)CCCC2)c1cc(=O)c2ccccc2o1	-2	-0.6%
COc1ccc(-c2nc(CNS(=O)(=O)c3ccc(C)cc3)cs2)cc1	-20	4.5%
CCCNC(=O)CN1CCN(c2ccc(NC(=O)c3ccc(OC)cc3)cc2C(=O)O)CC1	-28	1.9%
COc1ccc(CNC(=O)c2sc3nc4n(c(=O)c3c2C)CCC4)cc1	0	-18%
CCOc1ccc(-c2cc(C(=O)N3CCN(c4ccc(C)cc4)C(C)C3)c3ccccc3n2)cc1 (stereo not drawn)	10	?
O=C(NCC(c1ccc2c(c1)OCO2)N1CCOCC1)c1ccc(F)cc1 (stereo not drawn)	16	-2.8%
CC1(C(=O)NS(=O)(=O)c2cccs2)CCN1C(=O)CC1CC1 (stereo not drawn)	16	1.2%
CCOC(=O)CSc1nc2ccc(NC(=O)COc3ccccc3)cc2s1	19	14%
Cc1cc(C)cc(OCC(=O)Nc2c(C(=O)c3ccccc3)oc3ccccc23)c1	-3	-5.3%
O=C(NC1CCCCC1)c1ccc(CSc2nc3ccncc3n2Cc2cccc(F)c2)cc1	18	-7.4%
Cc1cc(C)c(NC(=O)c2sc3nc(C)cc(C)c3c2NC(=O)c2ccccc2)c(C)c1	-7	-2.2%
CCOC(=O)N1CCc2c(sc(NCc3ccc(OC)c(OC)c3OC)c2C(=O)Nc2ccc(OC)cc2OC)C1	9	3.9%
COc1ccccc1CCNc1ncnc2c1nnn2C	46	3.3%
O=c1ccc(-c2ccccc2)nn1Cc1c(F)cccc1Cl	-8	-6.7%
O=C(CN1CCN(Cc2ccc(F)cc2)C1=O)NCc1ccc(F)cc1	?	1.2%
O=C(Nc1ccc(F)c(Cl)c1)N1CCC(CN2CCOCC2)CC1	11	-0.5%
CCN(c1ccccc1C)S(=O)(=O)c1ccc(N2CCCCS2(=O)=O)cc1	9	-4.3%
CCc1ccccc1NC(=O)Cn1c(=O)ccc2cc(S(=O)(=O)N3CCC(C)CC3)ccc21	3	-3.5%
O=C(NC1CCCCC1)c1c[nH]c2ccc(S(=O)(=O)Nc3ccccc3F)cc2c1=O	-21	-15%
Cc1c(C(=O)NCc2ccccc2Cl)cccc1-n1cnc2cccnc21	9	0.3%
COC(=O)c1cc2oc(C)cc2n1Cc1cccc(Cl)c1	-2	-14%
COc1ccc(NC(=O)C(Cc2ccccc2)NS(=O)(=O)c2ccc3c(c2)oc(=O)n3C)c(OC)c1 (stereo not drawn)	-5	-0.2%
CCc1ccccc1NC(=O)CN1C(=O)CCSc2ccc(S(=O)(=O)N3CCCC3)cc21	-13	-1.0%
CCOC(=O)CNC(=O)N1CCc2cc(S(=O)(=O)N3CCC(C)CC3)ccc21	-16	-3.6%
CC(=O)N1CCc2cc(S(=O)(=O)NC(Cc3ccccc3)C(=O)NCc3ccccc3)ccc21 (stereo not drawn)	20	0.2%
COc1ccc(CCN2C(=O)N(c3ccc(F)cc3)C(=O)C2CC(=O)Nc2ccccc2)cc1OC (stereo not drawn)	-10	0.9%
O=C(CCn1c(=O)c2cccn2c2cccnc21)NCc1ccccc1Cl	10	-3.7%
Cc1ccc(C(Nc2ccccn2)c2ccc3cccnc3c2O)cc1 (stereo not drawn)	10	-2.7%
CC(C)CN(CC(C)C)C(=O)C1CCCN(S(=O)(=O)c2ccc3c(c2)oc(=O)n3C)C1 (stereo not drawn)	12	2.2%
CCOC(=O)Cc1c(C(=O)OCC)nnc2c(-c3ccccc3)c(C)nn12	-4	2.3%
COc1ccc(CNC(=O)c2cccc(N3CCCS3(=O)=O)c2)cc1OC	23	-3.1%
NS(=O)(=O)c1ccc(CCNC(=O)c2nc(SCc3ccccc3F)ncc2Cl)cc1	0	15%
O=C(NCC(c1cccnc1)N1CCOCC1)C(=O)Nc1ccc(Cl)cc1 (stereo not drawn)	23	0.0%
Cc1cc(O)c(C(c2ccccc2)N2CCN(c3ccccc3F)CC2)c(=O)n1Cc1ccco1 (stereo not drawn)	19	-1.5%
Cc1cc(-c2nc3ncccc3o2)ccc1NC(=O)COc1ccc(C(C)(C)C)cc1	-5	4.6%
CCC(CC)C(=O)N1CCc2cc(OC)c(OC)cc2C1COc1ccc(F)cc1 (stereo not drawn)	25	1.7%
CCn1c(=O)c2c(nc3n2CCN3c2ccc(OC)cc2)n(C)c1=O	1	0.1%
Cc1oc(-c2ccc(C(=O)NCc3ccc(N(C)C)cc3)cc2)nc1COc1ccccc1	-10	0.1%
The list continues:
SMILES	TRPML1 inh	ClpP mod
COc1ccc(OC)c(C2CC(=O)Nc3ccc4ccccc4c32)c1 (stereo not drawn)	9	-2.7%
COCCN(CCOC)S(=O)(=O)c1ccc(C(=O)Nc2sc3c(c2C(=O)OC)CCN(C)C3)cc1	-18	0.7%
CCCCNC(=O)CSc1nc2nc(C)c(Cc3ccccc3C)c(C)n2n1	-5	-8.4%
COc1ccc(-c2nc(CNC(=O)Nc3ccccc3)c(C)o2)c(OC)c1	-7	-1.1%
Cc1cccc(OCC(=O)N(Cc2cccs2)c2ccc(Cl)cc2)c1C	-9	-1.0%
Cc1ccc(CNC(=O)c2cc(S(=O)(=O)N3CCCC(C)C3)cn2C)cc1 (stereo not drawn)	0	1.0%
CCc1ccc(C2N3CC4(C)CN2CC(c2ccccc2)(C3)C4=O)cc1 (stereo not drawn)	11	-0.1%

Of the compounds above, twelve contain a thiophene ring, fused or not.
SMILES	TRPML1 inh	ClpP mod
CCOC(=O)C1CCCN(C(=O)c2cc3c(=O)n(C)c4ccccc4c3s2)C1 (stereo not drawn)	1	4.5%
COc1ccccc1NC(=O)CSc1oc(-c2cccs2)nc1S(=O)(=O)c1ccccc1	20	-10%
Cc1ccc(S(=O)(=O)c2nnn3c2nc(NCc2ccc(F)cc2)c2sccc23)cc1C	-8	28µM*
CCC(C)NC(=O)c1sc2nc3n(c(=O)c2c1C)CCC3 (stereo not drawn)	4	-9.0%
COc1ccc(N2CCN(CCCNC(=O)Cn3c(-c4cccs4)cc4ccccc43)CC2)cc1	12	4.2%
O=C(Nc1sc2c(c1C(=O)NCc1cccnc1)CCCC2)c1cc(=O)c2ccccc2o1	-2	-0.6%
COc1ccc(CNC(=O)c2sc3nc4n(c(=O)c3c2C)CCC4)cc1	0	-18%
CC1(C(=O)NS(=O)(=O)c2cccs2)CCN1C(=O)CC1CC1 (stereo not drawn)	16	1.2%
Cc1cc(C)c(NC(=O)c2sc3nc(C)cc(C)c3c2NC(=O)c2ccccc2)c(C)c1	-7	-2.2%
CCOC(=O)N1CCc2c(sc(NCc3ccc(OC)c(OC)c3OC)c2C(=O)Nc2ccc(OC)cc2OC)C1	9	3.9%
COCCN(CCOC)S(=O)(=O)c1ccc(C(=O)Nc2sc3c(c2C(=O)OC)CCN(C)C3)cc1	-18	0.7%
Cc1cccc(OCC(=O)N(Cc2cccs2)c2ccc(Cl)cc2)c1C	-9	-1.0%
